# Rango complex inh: qHTS Assay for Inhibitors of Rango (Ran-regulated importin-beta cargo) - Importin beta complex formation; Potency, µM (top dose mostly 92.2 µM), for inactives: at the highest dose inhibition of complex formation; hit rate 0.031% among 340,000; Rango CFP/YFP FRET sensor + importin beta, 45 min; active = rising FRET ratio curve, often small or poorly fitted; inconclusive = mostly compound fluorescence or quenching in the first reads; inactive = flat curves in all reads;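 note: potency is the fitted concentration of half-maximal effect; 0% = DMSO wells and 100% = buffer wells lacking importin beta; nearly all actives have a fitted effect of over 15% in size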
# Target sequence (Q14974 whole entry, looked up): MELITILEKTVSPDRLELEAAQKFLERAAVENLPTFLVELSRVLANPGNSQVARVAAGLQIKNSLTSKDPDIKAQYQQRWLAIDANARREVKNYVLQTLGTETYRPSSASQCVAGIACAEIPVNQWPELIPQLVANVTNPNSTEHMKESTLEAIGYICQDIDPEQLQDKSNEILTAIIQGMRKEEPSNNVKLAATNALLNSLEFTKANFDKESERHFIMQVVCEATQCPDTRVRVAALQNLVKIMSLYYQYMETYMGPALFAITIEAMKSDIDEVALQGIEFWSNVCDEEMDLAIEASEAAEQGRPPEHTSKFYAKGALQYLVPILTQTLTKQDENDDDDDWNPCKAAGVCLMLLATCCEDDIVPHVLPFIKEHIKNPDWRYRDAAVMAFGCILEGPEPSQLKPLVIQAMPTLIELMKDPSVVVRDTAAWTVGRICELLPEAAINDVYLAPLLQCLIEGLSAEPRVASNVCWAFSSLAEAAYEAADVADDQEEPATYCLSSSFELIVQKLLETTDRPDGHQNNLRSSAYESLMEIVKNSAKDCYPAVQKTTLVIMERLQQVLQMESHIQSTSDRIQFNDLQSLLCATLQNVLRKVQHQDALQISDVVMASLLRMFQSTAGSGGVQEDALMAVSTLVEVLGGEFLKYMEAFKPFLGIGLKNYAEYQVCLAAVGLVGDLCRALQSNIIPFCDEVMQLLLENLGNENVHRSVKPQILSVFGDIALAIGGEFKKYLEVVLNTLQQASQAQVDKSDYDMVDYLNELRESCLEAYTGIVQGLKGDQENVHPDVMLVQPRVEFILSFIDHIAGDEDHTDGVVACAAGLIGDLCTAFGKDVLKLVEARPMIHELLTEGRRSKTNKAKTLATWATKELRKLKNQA
#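 Inhibition scored from the CFP 486 nm/YFP 530 nm FRET ratio 45 min after adding 0.125 microM importin beta to 50 nM Rango biosensor preincubated 5 min with compound (room temperature, PBS with DTT, Tween-20, BSA). No-importin wells as positive control.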
# Rango release inh: qHTS Assay for Inhibitors of RanGTP induced Rango (Ran-regulated importin-beta cargo) - Importin beta complex dissociation; hit rate 0.071% among 340,000; Snurportin-1 (Homo sapiens) + GTP-binding nuclear protein Ran (Homo sapiens) + Importin …; Potency, µM (titrated, usually from 46.1 µM), without a hit: at the highest dose activity change, negative = inhibition; Biochemical FRET Rango-importin beta, RanGTP-induced dissociation; active means falling FRET ratio curve, often poorly fitted, with flat reads before Ran was added; inconclusive means other falling curves, or compound fluorescence or quenching; inactive means flat or rising ratio curve;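 note: potency is the fitted concentration of half-maximal effect; % of control where 0% means no effect; nearly all actives have a fitted effect of over 45% in size; -100% = wells without RanGTP and RCC1; the record marks most hits as doubtful in a second field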
#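 Two FRET readings bracket the reaction: one 5 min after compound meets Rango–importin beta, another 45 min after RanGTP-RCC1 (0.6 uM Ran, 0.2 uM RCC1, 2 mM GTP) is added. Only the second defines inhibition.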
# miR-21 reporter: qHTS Assay for Modulators of miRNAs and/orActivators of miR-21; HeLa miR-21 FLuc reporter, luciferase, 48 h; Potency, µM (highest dose often 38.3 µM), for the others: top-dose reporter change, positive = more light; 340,000 tested, under 10 active; AID 2288, 2010; active = well fitted rising curve with a large enough effect; inconclusive = small, poorly fitted or top-dose-only effect; inactive = no such curve, though single readings can be large or run the other way;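 note: % of control where 0% means no effect; miR-21 action dims this reporter so a rising signal means less miR-21 action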
#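 Luminescence from a firefly luciferase reporter carrying a miR-21 binding site downstream, stably expressed under a CMV promoter in HeLa cells that make miR-21 endogenously, reports miRNA modulation after 48 h compound exposure up to approximately 40uM final.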
# GLA inh pH 4.5: qHTS Assay for Inhibitors of Human alpha-Galactosidase at pH 4.5; 230,000 tested, under 10 active; purified enzyme, 4-MU-alpha-Gal fluorescence, pH 4.5; activity change, negative = inhibition, % at 105 µM; AID 1467, 2008; Alpha-galactosidase A (Homo sapiens), P06280; inconclusive = small, poorly fitted or top-dose-only inhibition, or a rising curve; inactive = flat fitted curve, though single readings scatter; no compound was filed as active;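 note: 0% = full activity with enzyme and -100% = basal without enzyme; dose as in the result columns while the protocol names 77 µM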
# * = called active by the depositor; ? = inconclusive; · = not tested or not shown; & = joins results of further samples. Not all compounds are listed; the hit share may differ from the screen's.
SMILES,Rango complex inh,Rango release inh,miR-21 reporter,GLA inh pH 4.5
C=CCn1c(=O)c2c(nc3n2CCCN3CCc2ccccc2)n(C)c1=O,1.5%,-1%,0%,·
CCCCn1c(N)c(N(CC)C(=O)c2c(CC)noc2C)c(=O)[nH]c1=O,1.5%,-13%,·,·
CCN1CCc2c(OCC(=O)N3CCCCC3)cccc2C1=O,-2.2%,3%,-3%,-2
CNN/C(N=Cc1ccc([N+](=O)[O-])s1)=N\S(=O)(=O)c1cc(C)c(Cl)cc1SCc1ccccc1,?,?,·,·
CN(C)c1ccc(-c2ccc3oc(-c4ccsc4)cc(=O)c3c2)cn1,0.7%,6%,·,·
Cc1ccc(S(=O)(=O)N2CCCC(C(=O)O)C2)s1 (centres undefined),0.3%,2%,0%,2
Cc1ccsc1C(=O)Nc1ccc(OCc2ccccc2)cc1,0.0%,21%,-66%,·
Cn1c(=O)c(=O)n(C)c2cc(S(=O)(=O)CCC(=O)N3CCCCC3)ccc21,-2.5%,2%,1%,·
COC(=O)c1c(NC(=O)c2ccco2)sc(C)c1C,0.6%,-1%,-7%,5
CCOC(=O)CSc1ncc(OC)c(Sc2ccc(Cl)cc2)n1,-6.0%,1%,-5%,-5
O=C1Nc2ccccc2Oc2cc([N+](=O)[O-])ccc21,1.5%,-2%,1%,-5
O=c1c2ccccc2sn1-c1ccc(F)cc1,?,20%,·,·
Cc1ccccc1OCC(=O)N1N=C(C(F)(F)F)CC1(O)C(C)(C)C (centres undefined),2.7%,-5%,-2%,-5
COc1cccc(CNC(=O)CCl)c1,-0.8%,-2%,30%,9
CC(C)NC(=O)Nc1cccc2c1O[C@@H](CN(C)S(=O)(=O)c1ccc(F)cc1)[C@@H](C)CN([C@H](C)CO)C2=O,1.4%,-7%,·,·
Cc1ccc(S(=O)(=O)NNc2ccccc2)cc1,9.0%,0%,-6%,1
CCN(CC)S(=O)(=O)c1cccc(C(=O)N[C@H](C(=O)O)C(C)C)c1,-0.5%,-6%,4%,2
O=c1ncn(-c2cccc(F)c2)c2ncccc12,-0.6%,0%,-14%,6
Oc1cccc(C2c3[nH]c4ccccc4c3CCN2Cc2cnn(-c3ccccc3)c2)c1 (centres undefined),?,-11%,4%,-9
Cc1ccc(S(=O)(=O)NC(=O)c2ccc(-c3ccc(-c4ccccc4)cc3)o2)c(C)c1,·,·,-9%,0
O=C(O)c1cc2c([nH]c1=O)CCCC2,-2.0%,1%,-4%,-11
N#Cc1cc2cc3c(cc2nc1SCC(=O)N1CCOCC1)OCO3,-2.8%,-10%,-60%,·
COc1ccccc1C(=O)NC1CCCc2ccccc21 (centres undefined),1.0%,17%,-5%,·
Cc1cc(C)c(NC(=O)C(C)c2cccc(C(=O)c3ccccc3)c2)c(C)c1 (centres undefined),0.4%,1%,-1%,-8
Cn1c2ccccc2c(=O)c2c(=O)n(C3CCCCC3)c(-c3ccco3)nc21,4.8%,7%,28%,-1
COc1ccccc1NC(=O)Cn1cc(C(=O)C2CC2)c2ccccc21,0.7%,-2%,-3%,·
Cn1cccc1Cc1nnc(SCC(=O)Nc2cccc(Cl)c2)n1-c1ccc(F)cc1,-2.7%,2%,0%,5
Cc1cc(C)n(C2CCCCC2OC(=O)c2ccccc2F)n1 (centres undefined),5.2%,6%,1%,5
COc1cc(C2C3C(=O)N(Cc4ccccc4)C(=O)C3ON2c2ccccc2)cc(OC)c1OC (centres undefined),-1.2%,11%,-1%,-2
CC(C)c1ccc(C(=O)NC(=S)Nc2ccc3[nH]c(=O)[nH]c3c2)cc1,3.5%,6%,-6%,-1
COCCN(Cc1cc2cc(C)ccc2n2nnnc12)C(=S)Nc1ccc(OC)cc1,-0.5%,5%,·,·
COc1ccc(C)cc1NC(=O)c1ccc(NS(=O)(=O)c2cccc3cccnc23)cc1,5.3%,2%,-12%,-5
Cc1ccc(N(CC(=O)NCc2ccccc2Cl)S(=O)(=O)c2cccs2)cc1,-3.4%,-10%,5%,5
CCN(CC)S(=O)(=O)c1ccc(C(=O)Nn2cnnc2)cc1,-5.0%,9%,-3%,·
Cc1ccc(C(=O)NCc2ccco2)o1,3.0%,2%,-1%,·
CCc1c(O)nc(SCc2nc3ccccc3c(=O)[nH]2)[nH]c1=O,3.1%,6%,6%,2
COc1ccc2nc(C)cc(NCCN3CCOCC3)c2c1,-4.9%,-15%,-7%,·
CCNC(=S)NCc1ccc(Cl)cc1,0.7%,5%,·,·
COc1ccccc1N1CCN(C(c2ccc(Cl)cc2)c2nnnn2C(C)(C)C)CC1 (centres undefined),6.4%,13%,-5%,-3
O=S(=O)([N-]c1nc2ccccc2nc1-[n+]1ccccc1)c1ccccc1,-1.1%,-4%,1%,-20
CC(=S)c1c(C)cc2cc(C)ccn12,?,-6%,-3%,-1
CC(=O)C1=C(O)C(=O)N(c2nccs2)C1c1ccccc1F (centres undefined),?,-10%,-14%,-3
CCC(C)C(N=C1NS(=O)(=O)c2ccccc21)C(=O)N1CCC(C)CC1 (centres undefined),-1.3%,15%,·,·
COc1cccc(C(=O)NCCOc2cc(C)cc(C)c2)c1,-1.3%,8%,-2%,0
Oc1ccc(C=NCC2COc3ccccc3O2)cc1 (centres undefined),?,-15%,-7%,6
O=C(C1CCCN(S(=O)(=O)c2ccc(Cl)cc2)C1)N1CCCC1 (centres undefined),-0.2%,-1%,1%,·
O=C(OCCN1CCCCC1)c1ccccc1F,2.5%,5%,-2%,·
COc1cccc(NC(=O)CN(C)C(=O)c2oc3c(ccc4ccccc43)c2C)c1,-4.5%,1%,·,·
O=C(CSc1ccc(-c2ccco2)nn1)N1CCCC1,7.3%,-3%,-4%,-2
N/C(=N\OC(=O)c1cccs1)c1cccc(Br)c1,0.2%,23%,-64%,4

# Results in miR-21 reporter (two entries from above):
smiles	miR-21 reporter
Cc1ccc(S(=O)(=O)NNc2ccccc2)cc1	-6%
CCN(CC)S(=O)(=O)c1cccc(C(=O)N[C@H](C(=O)O)C(C)C)c1	4%

# Following part:
SMILES,Rango complex inh,Rango release inh,miR-21 reporter,GLA inh pH 4.5
CC(=O)c1ccc(N2CCN(C(=O)Cc3cccs3)CC2)cc1,-0.4%,10%,-30%,-5
Cc1cc(C)c(C)c(S(=O)(=O)Nc2ccccc2C(=O)NCCCn2ccnc2)c1C,4.2%,-3%,-5%,-25
COc1ccc(-n2nc(C(=O)NCC(=O)NCCCN3CC(C)CC(C)C3)c3ccccc3c2=O)cc1Cl (centres undefined),4.4%,5%,1%,·
CCOc1cc(CNCCCN2CCOCC2)ccc1OCC(=O)NC(C)(C)C,4.1%,2%,0%,3
Cc1cccc(C(=O)OC(C)C(=O)N2CCN(Cc3ccccc3)CC2)c1 (centres undefined),-2.3%,22%,·,·
COc1ccccc1CNC(=O)C1CCC(CNS(=O)(=O)c2ccc(F)cc2)CC1 (centres undefined),-6.6%,23%,0%,·
Cc1c([C@H]2[C@@H](CC#N)C2(C)C)c2ccccc2n1C,-4.1%,0%,-6%,4
CCOC(=O)CSc1nc2ccc(C)cc2n2cnnc12,-1.8%,-10%,-19%,·
O=C(c1ccccc1)N1CCC(c2nc(-c3ccc(S(=O)(=O)NCC4CCCO4)cc3)no2)CC1 (centres undefined),-1.6%,0%,6%,-1
COc1ccc2cc(C(C)C(=O)OC(C)C)ccc2c1 (centres undefined),2.0%,33%,·,·
Clc1ccc(CNc2ccc(N3CCN(Cc4ccccc4)CC3)cc2)cc1,0.0%,1%,4%,·
CC(=O)NC1=NC(=O)/C(=C/N2CCCCC2)S1,0.0%,1%,-6%,-2
Cc1nn(Cc2ccc(F)cc2)c(C)c1NC(=O)c1noc2c1CCCCC2,?,-2%,14%,-2
Cc1c(OCC(=O)NCC2CCC(C(=O)NCCCO)CC2)ccc2c(-c3ccccc3)cc(=O)oc12 (centres undefined),0.4%,15%,-4%,·
C[N+]1(CC(O)COCC2COc3ccccc3O2)CCOCC1 (centres undefined),-1.6%,-5%,3%,4
CCC(=O)NC(=S)NNC(=O)c1ccc(OC)cc1,-2.5%,-11%,-6%,-24
CC(=O)Nc1cccc(C(=O)Nc2cccnc2)c1,-3.7%,5%,-2%,-3
COc1ccccc1C(=O)NCC(=O)Nc1ccc2c(c1)CCC2,-0.3%,16%,·,·
Cn1cccc1C(=O)OCC(=O)Nc1cc(C(C)(C)C)nn1-c1ccccc1,?,2%,0%,1
CN1CCC(=C2c3ccccc3C(O)c3ccccc32)CC1 (centres undefined),-1.0%,0%,15%,2
Cc1nnc(SCC(=O)c2ccc(Cl)cc2)n(N)c1=O,?,?,-59%,2
CC1CC(C)CN(CC(O)COCCOc2ccc(Br)cc2)C1 (centres undefined),0.3%,3%,5%,-12
COC(=O)c1ccc(NC(=O)c2sc3nc(-c4ccccc4)cn3c2C)cc1,-0.7%,-5%,-6%,-2
CCCCCn1nc(C(=O)N2CCc3ccccc32)c2ccccc2c1=O,-0.1%,19%,·,·
c1ccc2cc(Sc3ncnc4c3oc3ccccc34)ccc2c1,-4.8%,-2%,-6%,2
COc1ccccc1-n1ccnc1SCC(=O)NCC1CCCO1 (centres undefined),-8.6%,17%,-1%,·
CC[C@H]1OC(=O)[C@H](C)[C@@H](O[C@H]2C[C@@](C)(OC)[C@@H](O)[C@H](C)O2)[C@H](C)[C@@H](O[C@@H]2O[C@H](C)C[C@H](N(C)C)[C@H]2O)[C@](C)(O)C[C@@H](C)C(=NOCOCCOC)[C@H](C)[C@@H](O)[C@]1(C)O,-5.8%,1%,0%,·
CCCCSc1c(C)c2cc3c(cc2[nH]c1=O)OCO3,-0.5%,2%,-9%,-3
Cc1cccc(C(=O)NCC(=O)OCC(=O)NC2CCCCCCC2)c1,-2.4%,1%,·,·
O=C(CCn1cnc2ccccc2c1=O)Nc1nc(-c2ccc(Br)cc2)cs1,0.4%,-6%,-1%,-1
Cc1nc2ccccc2c(=O)n1NC(=O)c1ccc(F)cc1Cl,0.0%,14%,-12%,-3
CCOc1ccc(/C=C2\CCc3ccccc3C2=O)cc1,0.4%,13%,-50%,-4
CCc1ccc(NC(=O)CSc2nncn2-c2cccnc2)cc1,-2.8%,8%,-61%,·
CC1CCCN(C(=O)Cn2c(-c3nonc3N)nc3ccccc32)C1 (centres undefined),0.5%,-8%,-2%,7
CS(=O)(=O)NCCSCc1c(Cl)cccc1Cl,1.7%,-12%,-14%,5
CCOc1cc(NC(=S)NCC2CCCO2)c(OCC)cc1NC(=O)CC (centres undefined),-0.1%,-25%,2%,-3
CCCn1c(=NC(=O)c2c(-c3c(F)cccc3Cl)noc2C)c(C(=O)OCC)cc2c(=O)n3ccccc3nc21,·,·,-1%&-3%,-8
CS(=O)(=O)c1cc([N+](=O)[O-])c(Sc2nc3ccccc3[nH]2)c([N+](=O)[O-])c1,3.1%,3%,?,2
COc1ccc(/C(N)=N/OC(=O)CSc2ccc(C)cc2)cc1OC,2.4%,-1%,-5%,-4
COc1ccc(NC(=S)N2CCN(Cc3ccccc3)CC2)c(OC)c1,1.6%,2%,-2%,-2
CCCCn1c(SCC(=O)c2ccc3c(c2)NC(=O)CO3)nc2cc(S(N)(=O)=O)ccc21,4.1%,?,4%,3
O=[N+]([O-])c1ccc(COc2cccc(CNc3ccc(F)cc3)c2)cc1,1.9%,-8%,-30%,7
CC(=O)N(C)C(c1ccc(N(C)C)cc1)c1nnnn1-c1c(C)cccc1C (centres undefined),2.0%,-3%,-1%,5
CCOC(=O)C(NCc1ccc2c(c1)OCO2)(NC(=O)CC)C(F)(F)F (centres undefined),7.0%,-4%,0%,1
COc1ccc(C2C(C(=O)Nc3ccc(F)cc3)=C(C)Nc3nc(CCCO)nn32)cc1 (centres undefined),-0.1%,2%,-9%,0
CC(C)c1ccc(CNc2nc3nc4c(c(=O)n3[nH]2)CCC4)cc1,-0.5%,9%,-2%,3
COc1ccccc1CC(NC(C)=O)C(=O)NC1CCN(C(=O)Nc2ccccc2F)CC1 (centres undefined),1.5%,-1%,2%,·
